Rce1 inh – blocks yeast Ras-converting enzyme; Q03530; yeast membranes, quenched prenylated peptide cleavage fluorescence; calls only; 290,000 tested, 0.27% active; AID 2563;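 active = fall in fluorescence gain of 50% or more versus controls, with final raw signal at or below 3038400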;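 also: plate controls were neutral control wells for no effect and wells lacking membranes for full effect; tested at 10 µM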
Target sequence (Q03530 whole entry, looked up): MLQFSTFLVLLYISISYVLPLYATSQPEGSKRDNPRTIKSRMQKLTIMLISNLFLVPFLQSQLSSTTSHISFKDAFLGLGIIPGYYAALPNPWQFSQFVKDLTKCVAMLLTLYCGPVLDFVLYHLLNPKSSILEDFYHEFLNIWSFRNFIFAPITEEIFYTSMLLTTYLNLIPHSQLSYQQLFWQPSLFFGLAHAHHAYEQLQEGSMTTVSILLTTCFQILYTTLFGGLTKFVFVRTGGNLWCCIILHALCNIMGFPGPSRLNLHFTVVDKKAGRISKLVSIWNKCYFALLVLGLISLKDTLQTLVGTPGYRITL
PABP FP inh – blocks human PABP binding to poly(A) RNA; 290,000 tested, 1% active; inhibition, % at 35 µM; fluorescence polarization; AID 2014;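 active = 50% or more with normal probe brightness, or confirmed in later tests; about a fifth of its hits are not listed in these tables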;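 also: calls also rest on retests at 20 µM and on dose response follow-up; controls were probe without protein and protein plus probe with vehicle; some compounds called inactive have numbers as strong as hits; many hits fall short of the cut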
Target sequence (P11940 whole entry, looked up): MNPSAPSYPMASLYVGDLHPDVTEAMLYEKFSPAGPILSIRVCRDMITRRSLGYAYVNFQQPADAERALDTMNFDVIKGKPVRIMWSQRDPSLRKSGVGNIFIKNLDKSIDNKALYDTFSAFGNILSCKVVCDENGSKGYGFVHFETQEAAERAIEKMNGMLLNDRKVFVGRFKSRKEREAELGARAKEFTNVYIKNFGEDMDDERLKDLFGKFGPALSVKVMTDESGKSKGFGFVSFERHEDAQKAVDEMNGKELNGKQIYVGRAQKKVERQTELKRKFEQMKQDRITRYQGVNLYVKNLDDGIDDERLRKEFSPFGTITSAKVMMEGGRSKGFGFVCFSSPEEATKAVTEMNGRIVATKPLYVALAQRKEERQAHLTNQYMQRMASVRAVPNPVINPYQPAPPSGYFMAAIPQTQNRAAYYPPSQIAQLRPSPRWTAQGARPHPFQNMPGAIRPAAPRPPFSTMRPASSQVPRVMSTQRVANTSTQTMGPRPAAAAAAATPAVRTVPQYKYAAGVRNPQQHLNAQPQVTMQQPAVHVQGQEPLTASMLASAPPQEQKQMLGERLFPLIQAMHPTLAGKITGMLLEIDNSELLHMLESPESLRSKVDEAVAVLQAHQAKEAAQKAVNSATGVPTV
MT1-MMP act inh – inhibitors of human MT1-MMP activation | P50281 | HT1080 RFP-PRO-GFP cells, GFP/RFP ratio fluorescence, overnight; percent of plate control window, DMSO zero | GFP/RFP ratio change, % at 20 µM | 360,000 tested, 0.061% active;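 active = GFP/RFP ratio change of at least 30% with cell ATP level not reduced by more than half and red fluorescence within 50% of control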; also: strong numbers were not always called active
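Assay system: HT1080 RFP-PRO-GFP cells | Dosing: 20 µM single dose, 1% DMSO | Incubation: Cells overnight before dosing, compound overnight, 37 °C, 5% CO2 | Evaluation: GFP/RFP fluorescence ratio | Control set: DMSO-only wells and HT1080 RFP-L50D-GFP cell wells as references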
CSC inhib – cancer stem cell inhibition; cancer stem cell-like cells viability, luminescence; inhibition, % at 7.5 µM; 300,000 tested, 1.1% active;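 active = mean at 75% or more and at least half the replicates too; tested in HMLE shEcad cells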;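 also: 0% = median of negative and 100% = median of positive control wells; the first replicate is given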
eIF4H FP inh – inhibitors of RNA binding by human eIF4H; inhibition, % at 35 µM; AID 2012; 290,000 tested, 0.94% active; eIF4H fluorescence polarization binding assay;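 active = 50% or more with normal probe brightness, or confirmed in later tests; about a fifth of its hits are not listed in these tables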;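 also: calls also rest on retests at 20 µM and on dose response follow-up; 0% = protein and probe with vehicle and 100% = probe without protein; strong numbers were not always called active; many hits fall short of the cut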
Yeast UUG start – modulators of start codon recognition fidelity in yeast; activity score, % at 18.7 µM; 350,000 tested, 0.13% active; AID 602363; S. cerevisiae UUG-firefly luciferase reporter, luminescence/redox ratio;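 active = replicate mean at a twofold rise or more, about +100% in these data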;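 also: firefly luciferase made from a UUG start codon reports start codon fidelity; reporter light over untreated wells divided by growth signal over untreated wells; some hits fall short of that in this replicate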
HIV Env fusion – HIV envelope-mediated fusion inhibition. inhibition, % at 12.3 µM. HeLa-JRFL Env/CEM21 cell fusion, luciferase. 360,000 tested, 1.1% active. AID 651610;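 active = mean replicate inhibition score of at least 50 and every replicate individually at or above 50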;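 also: 0% = plate neutral controls and 100% = maraviroc near 300 nM; one replicate is shown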
eIF4H FP inh retest – also measured in eIF4H FP inh; calls as there; inhibition, %; compound at 20 µM; confirmation average;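 mean of two retest wells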
PABP FP inh retest – second read-out of PABP FP inh, no call of its own (marks repeat the call); inhibition, %; compound at 20 µM; confirmation repeats;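 mean of two retest wells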
MT1-MMP act inh RFP – also measured in MT1-MMP act inh; calls as there; RFP signal change, %; measured here: RFP expression control read;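 0 = vehicle wells; hits needed this value within 50% of zero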
Numbers without * were called inactive; i = inactive; · = not tested or not shown; & = joins results of further samples; [ ] = dose if it differs, or a comment. Not a hit list, and some 2.9% of all compounds hit somewhere here.

SMILES	Rce1 inh	PABP FP inh	MT1-MMP act inh	MT1-MMP act inh RFP	CSC inhib	eIF4H FP inh	Yeast UUG start	HIV Env fusion	others
CCCCc1ccc(NC(=O)COc2ccc(C(=O)Nc3ccccc3OC)cc2)cc1	i	-1	·	·	-9	-1	·	1
O=S1(=O)N=C(Nc2ccc(N3CCOCC3)c(Cl)c2)c2ccccc21	i	-8	3	-1	-7	-15	·	-16
COc1ccc(-c2nc(-c3ccncc3)no2)cc1	i	9	3	-5	4	-1	-12	-51
COc1ccc(C(=O)CN(CCC(=O)O)S(=O)(=O)c2ccc([N+](=O)[O-])cc2)cc1	·	·	-1	0	10	·	-7	15
N/C(=N\OC(=O)Cc1ccccc1[N+](=O)[O-])c1ccncc1	i	0	-9	-2	·	6	-7	3
Cc1ccccc1NC(=O)N1CCc2ccccc2C1	i	-1	2	-2	-8	-4	-8	8
Cc1cc(C)nc(N/C(=N\S(=O)(=O)Cc2ccccc2)Nc2ccc(F)c(Cl)c2)n1	i	-15	-3	-7	20	-6	·	1
CC(OC(=O)c1ccccn1)C(=O)Nc1ccc(C(F)(F)F)cc1 (centres undefined)	·	·	1	0	-24	·	-5	0
COc1ccc(-c2cc(C(F)(F)F)nc(SCC(=O)NCCCN3CCOCC3)n2)cc1	·	0	3	6	-1	2	·	8
COc1cc(OC)c(CN2CCC(CO)(CCOc3ccccc3)CC2)c(OC)c1	i	-8	0	-2	17	1	·	24
C=CCN1C(=O)C2(/C(=C(\O)c3ccc4c(c3)OCCO4)C(=O)C(=O)N2CCCOC)c2ccccc21 (centres undefined)	i	9	7	4	-1	17	1	·
COc1ccc(CN2CCN(Cc3cc4ccccc4o3)CC2CCO)cc1C (centres undefined)	i	-6	-3	-3	12	2	2	-6
COc1ccc(C(=O)NC2CC2)cc1OC1CCN(Cc2ccc(F)cc2Cl)CC1	i	5	2	-3	24	6	2	5
CCOC(=O)c1c(-c2ccc(C)c(C)c2)csc1NC(=O)C1CC=CCC1C(=O)O (centres undefined)	i	4	-2	0	29	0	-11	·
CCOC(=O)[C@@H]1[C@H]2COc3ccc(Br)cc3[C@@H]2N2C(=O)N(c3cccc(Cl)c3)C(=O)[C@@]12C	·	·	-8	-12	1	·	-18	12
CC(C)(C)c1ccc(S(=O)(=O)Nc2ccccn2)cc1	i	10	4	6	·	-1	-3	6
NC(=O)COC(=O)/C=C/c1ccccc1[N+](=O)[O-]	i	33	5	2	-11	-3	·	-2
COC(=O)c1c(C(=O)OC)c(-c2cccc(C)c2)n2c1CS(=O)C2 (centres undefined)	i	4	2	2	2	-2	·	9
COc1ccc(C(NC(=O)/C=C/c2ccco2)c2ccc(OC)c(OC)c2)cc1 (centres undefined)	i	3	-4	-2	·	46	·	30
O=C(NCc1cccnc1)c1nc(-c2ccc(C(F)(F)F)cc2)no1	i	-9	3	1	-3	4	·	16
CSc1nnc(-c2cccn(Cc3ccccc3)c2=O)o1	i	0	-1	-2	-10	-2	-19	15
O=C(OCC(=O)N1CCCC1=O)c1cccc(S(=O)(=O)N2CCOCC2)c1	i	6	·	·	·	-6	-7	-9
CS(=O)(=O)N(CC(=O)N1CCN(c2cccc(Cl)c2)CC1)C1CCCCC1	i	-4	-6	-6	-7	5	18	·
COc1cccc(C2CCCN2Cc2nc(CC3CC3)no2)c1 (centres undefined)	i	3	0	3	-33	-5	-19	1
COc1ccc(N(CC(=O)Nc2ccccc2C(=O)NCCc2ccccc2)S(C)(=O)=O)cc1OC	i	1	1	2	1	9	-2	·

A portion of the results above, as a working copy:
SMILES	Rce1 inh	PABP FP inh	MT1-MMP act inh	MT1-MMP act inh RFP	CSC inhib	eIF4H FP inh	Yeast UUG start	HIV Env fusion	others
CCOC(=O)c1c(-c2ccc(C)c(C)c2)csc1NC(=O)C1CC=CCC1C(=O)O (centres undefined)	i	4	-2	0	29	0	-11	·
CCOC(=O)[C@@H]1[C@H]2COc3ccc(Br)cc3[C@@H]2N2C(=O)N(c3cccc(Cl)c3)C(=O)[C@@]12C	·	·	-8	-12	1	·	-18	12
CC(C)(C)c1ccc(S(=O)(=O)Nc2ccccn2)cc1	i	10	4	6	·	-1	-3	6
NC(=O)COC(=O)/C=C/c1ccccc1[N+](=O)[O-]	i	33	5	2	-11	-3	·	-2

More entries.
SMILES	Rce1 inh	PABP FP inh	MT1-MMP act inh	MT1-MMP act inh RFP	CSC inhib	eIF4H FP inh	Yeast UUG start	HIV Env fusion	others
CSc1nc(N(C)C)c2ccccc2n1	i	-1	-1	-1	-7	9	·	12
CSc1ncccc1C(=O)Nc1cccc(S(=O)(=O)N2CCCCCC2)c1	·	·	-2	-5	19	·	-8	·
CC[C@H](C)[C@@H]1NC(=O)[C@@H](CC(C)C)NC(=O)[C@H](C(C)C)NC(=O)[C@H]2CSSC[C@H](NC1=O)C(=O)N2	·	·	-23	-34	·	·	-10	69*
COc1cc(OC)cc(C(=O)Nc2ncc3c(n2)CC(C)CC3=O)c1 (centres undefined)	i	-6	0	0	-3	-1	-3	-101
CCN(CC(=O)Nc1c(C(=O)OC)[nH]c2ccc(C)cc12)c1ccc2c(c1)OCO2	i	10	-6	-3	-4	12	11	25
COc1ccc(C)cc1NC(=O)c1cc2ccccc2o1	i	3	1	0	2	-9	-16	3
Cc1cc(OC(=O)c2ccc(C(F)(F)F)cc2)c([N+](=O)[O-])c(=O)[nH]1	i	8	2	3	-8	-9	2	-13
CC1CCCC(C)N1c1ccc(S(=O)(=O)N2CCOCC2)cc1Cl (centres undefined)	i	-3	0	-3	32	2	-6	6
Cc1sc2ncn(CC(=O)N3CCN(c4ccccc4F)CC3)c(=O)c2c1S(=O)(=O)N1CCOCC1	i	10	0	-3	-3	-8	-8	2
CC1=CC(C)(C)N2C(=O)C3(SCC(=O)N3c3ccc(O)cc3)c3cc(C)cc1c32 (centres undefined)	i	-3	-12	-8	·	6	4	-31
Cc1nn(CC(O)Cn2cnc3c2c(=O)n(C)c(=O)n3C)c(C)c1Br (centres undefined)	i	-12	-1	0	-8	-2	-3	·
C[C@H](CO)N1C[C@H](C)[C@H](CN(C)C(=O)Cc2cccnc2)Oc2ncc(Br)cc2C1=O	·	·	-3	1	·	·	4&-7	-20
Cn1c(=O)[nH]c(=O)c2c1nc(NCCCn1ccnc1)n2CCOc1ccccc1	i	0	-1	1	-2	3	·	·
Cc1cc(NC(=O)c2cccc(Br)c2)n[nH]1	i	·	4	0	3	·	-22	-42
COc1cccc(C(=O)Oc2c(CN3CCOCC3)cc(Cl)c3cccnc23)c1	i	4	-2	-1	-8	8	-29	-4
C/C(=N\NC(=O)c1c[nH]c2ccccc12)c1ccccn1	i	12	1	-1	20	8	·	-20
O=C(Cc1c[nH]c2ccccc12)NCc1ccco1	i	-6	8	8	-8	-9	·	-9
CCOC(=O)c1cc(-c2ccc(OC)cc2)nn1-c1ccccc1C(=O)O	i	9	0	4	-6	48	-5	1
O=C(CCl)NC1(C(=O)O)CCCC1	·	·	-2	-1	·	·	-6	9
COc1ccccc1-c1nc2ccc(Cl)cc2c(=O)n1O	i	-3	-1	1	0	1	·	4
Cc1csc(NC(=O)c2ccc(S(=O)(=O)N(C)c3ccccc3)cc2)n1	i	5	2	-13	-5	-15	-1	·
C[C@H](CO)N1C[C@H](C)[C@@H](CN(C)Cc2ccc(Oc3ccccc3)cc2)Oc2c(NC(=O)C3CC3)cccc2C1=O	·	·	8	-1	·	·	11&1	-41[16.7 µM]
CCOC(=O)c1cc(-c2csc(-c3ccc(C(F)(F)F)cc3)n2)on1	i	-13	3	4	-6	-3	·	3
CCN1CCN(C(=S)c2ccc(OC)cc2)CC1	i	1	2	-2	13	-10	1	9
CS(=O)(=O)N1c2ccccc2[C@@]2(Br)C[C@H]3C(=O)N[C@@H](Cc4ccccc4)C(=O)N3[C@@H]12	i	·	4	0	-13	·	5	11

Three entries drawn at random from the list so far, as already listed:
SMILES	Rce1 inh	PABP FP inh	MT1-MMP act inh	MT1-MMP act inh RFP	CSC inhib	eIF4H FP inh	Yeast UUG start	HIV Env fusion	others
COc1cc(OC)cc(C(=O)Nc2ncc3c(n2)CC(C)CC3=O)c1 (centres undefined)	i	-6	0	0	-3	-1	-3	-101
Cc1sc2ncn(CC(=O)N3CCN(c4ccccc4F)CC3)c(=O)c2c1S(=O)(=O)N1CCOCC1	i	10	0	-3	-3	-8	-8	2
CSc1ncccc1C(=O)Nc1cccc(S(=O)(=O)N2CCCCCC2)c1	·	·	-2	-5	19	·	-8	·

Continuation.
SMILES	Rce1 inh	PABP FP inh	MT1-MMP act inh	MT1-MMP act inh RFP	CSC inhib	eIF4H FP inh	Yeast UUG start	HIV Env fusion	others
O=C(NNC(=O)c1cccc(Br)c1)Nc1ccc(Cl)cc1	i	-18	1	0	·	-7	-17	9
O=C(NCCC(c1ccccc1)c1ccccc1)c1cnc2sccn2c1=O	i	-3	-1	0	-3	-3	·	0
CCCCNC(=O)NS(=O)(=O)c1cnccc1Sc1ccc(Cl)cc1	·	-4	2	1	-7	-6	-15	·
Nc1cc(Oc2cccnc2)cc([N+](=O)[O-])c1	i	2	3	0	·	30	·	4
CN(C)C(=O)c1cn(-c2ccccc2)c(=O)c2ccccc12	i	-2	1	0	-11	-6	-3	-10
COC(=O)CSc1nnc(CNC(=O)c2ccc(S(=O)(=O)N(C)C)cc2)n1C	i	8	-5	1	-3	-4	·	1
C[C@H]1CC[C@H]2C(=O)N3[C@H](c4cccc(N5CCCC5=O)c4)[C@@H](C)CC[C@H]3C(=O)N2[C@@H]1c1cccc(N2CCCC2=O)c1	i	8	·	·	-3	-2	·	·
COc1ccc(-c2cn3c4c(sc3n2)CCCC4)cc1	i	-1	4	-6	-1	-2	-68	-372
COc1ccc(C(=O)COC(=O)C2CCN(S(=O)(=O)c3cccc4cccnc34)CC2)cc1	i	-2	-3	2	7	-1	-30	0
COc1ccc2c(c1)OC(c1ccccc1)(C(F)(F)F)NC2=O (centres undefined)	i	17	-2	0	-8	0	·	-87
c1csc(-c2nn3c(Cn4cnc5ccccc54)nnc3s2)c1	i	1	2	-1	-10	-9	-30	·
Cc1cc(S(=O)(=O)Nc2ccc(C(=O)NCC(c3ccco3)N3CCCCC3)cc2)ccc1F (centres undefined)	i	·	4	0	-9	·	-18	·
S=c1[nH]nc(-c2cc(-c3ccccc3)n[nH]2)n1/N=C/c1c(Cl)cccc1Cl	i	-7	-2	-4	41	57	·	-9	eIF4H FP inh retest=14;PABP FP inh retest=37
O=C(CN1CCOCC1)n1c2ccccc2c2ccccc21	i	1	-2	1	-7	6	-63	·
COC(=O)c1sc(NC(=O)c2c(-c3ccccc3)noc2C)nc1C	i	-5	-2	-2	4	-8	-14	-10
Cc1cc(C)n2cc(CSc3ccccn3)nc2n1	i	0	1	6	7	2	·	4

Structures from the list above containing an NH in an aromatic ring:
SMILES	Rce1 inh	PABP FP inh	MT1-MMP act inh	MT1-MMP act inh RFP	CSC inhib	eIF4H FP inh	Yeast UUG start	HIV Env fusion	others
CCN(CC(=O)Nc1c(C(=O)OC)[nH]c2ccc(C)cc12)c1ccc2c(c1)OCO2	i	10	-6	-3	-4	12	11	25
Cc1cc(OC(=O)c2ccc(C(F)(F)F)cc2)c([N+](=O)[O-])c(=O)[nH]1	i	8	2	3	-8	-9	2	-13
Cn1c(=O)[nH]c(=O)c2c1nc(NCCCn1ccnc1)n2CCOc1ccccc1	i	0	-1	1	-2	3	·	·
Cc1cc(NC(=O)c2cccc(Br)c2)n[nH]1	i	·	4	0	3	·	-22	-42
C/C(=N\NC(=O)c1c[nH]c2ccccc12)c1ccccn1	i	12	1	-1	20	8	·	-20
O=C(Cc1c[nH]c2ccccc12)NCc1ccco1	i	-6	8	8	-8	-9	·	-9
S=c1[nH]nc(-c2cc(-c3ccccc3)n[nH]2)n1/N=C/c1c(Cl)cccc1Cl	i	-7	-2	-4	41	57	·	-9	eIF4H FP inh retest=14;PABP FP inh retest=37
